# PrP UTR inh: inhibition of PrP 5' UTR reporter expression. cell-based PrP 5' UTR mRNA reporter, plate reader. inhibition, % (test concentration not listed). actives 0.35% (n = 340,000);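 active = every replicate at 50% or more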;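 also: 0 = median of the neutral control wells; tested in H4 reporter cells; numbers are from one replicate; inactives centre near -14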
# Mtb hypoxia rep: PubChem AID 1159583; M. tuberculosis hypoxia-regulated fluorescent reporter, fluorescence; fluorescence inhibition, % (no concentration beside the values); actives 0.1% (n = 300,000);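 active = 35 to 45% if threefold the growth effect, above 45% if 1.5-fold the growth effect; inactive = the rest, general growth blockers included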;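 also: wells of about 50 µL received 100 nL stock; 0% = vehicle wells and 100% = reference inhibitor wells; whole bacteria with a GFP reporter of the hypoxia response; strong numbers were not always called active; many hits fall short of the cut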
# Bead autofluor: flagged as autofluorescent in microsphere protease counterscreen | compound autofluorescence counterscreen, microsphere flow cytometry; active compounds read high | fluorescence intensity (no concentration beside the values) | actives 3.1% (n = 360,000) | AID 624483;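 active = at least 3 SD above the mean of all compounds, about 16000 in these data; inconclusive = too few beads counted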;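 also: 100 nL of 1 mM stock went into each well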
# RN4220 kill: growth inhibition of S. aureus RN4220, primary screen, OD600 | inhibition, % (test concentration not listed) | 16 h | actives 0.33% (n = 330,000) | AID 1259311, 2017;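 active = z-score of -3 or lower and OD600 up to 0.18 on both plates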;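 also: plate controls were untreated cells for no effect and reference antibiotic for full effect; stock transfer was 100 nL into about 80 µL; one replicate is shown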
# BJeLR viability: MLPCN primary cell-based screen for lethality selective to Ras in HRASV12 cells. BJeLR (HRASV12) viability, CellTiter-Glo ATP luminescence, 48 h; reference of the scale not given here. inhibition, % (concentration not given with the values). actives 0.17% (n = 300,000). AID 1554, 2009;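 active = replicate mean above 50%; inconclusive = above 50% but judged a plate artefact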;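 also: 50 nL library stock added to about 25 µL; numbers are from one replicate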
# Sa ugtP lethal: growth inhibition of ugtP-null S. aureus, primary screen, RN4220 ugtP deletion, OD600; 16 h; some inactives read as strong as hits; growth inhibition, % (test concentration not listed); actives 0.54% (n = 330,000);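 active = z-score under -3 and OD600 up to 0.15 on both plates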;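 also: plate controls were untreated wells for no effect and antibiotic for full effect; wells of about 80 µL received 100 nL stock; the first replicate is given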
# Mtb hypoxia rep growth: further read-out of Mtb hypoxia rep, marked with its call; growth inhibition, %; measured here: M. tuberculosis growth (absorbance);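 0% = vehicle and 100% = reference antibiotic; read after six days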
# The depositor's hits bear a star; ? = inconclusive; . = not tested or not shown.
# Values run as follows: PrP UTR inh | Mtb hypoxia rep | Mtb hypoxia rep growth | Bead autofluor | RN4220 kill | BJeLR viability | Sa ugtP lethal
CCCCC(=O)NC(=S)Nc1ccc(Cl)c(C(=O)O)c1
 : -11 | 18 | 12 | 3480 | 6.0 | -14 | 7
COc1ccc(-n2nnnc2-c2nc3ccccc3s2)cc1
 : 11 | -2 | -3 | 2465 | -0.4 | -8 | -3
CCCCc1ccc(NC(=O)N2CCNC(=O)C2CC(=O)Nc2ccsc2C(=O)OC)cc1 (stereo unspecified)
 : -11 | 14 | 7 | 2981 | 3.9 | -5 | 8
CC(=O)Nc1ccc(OCC[n+]2cccc(C(N)=O)c2)cc1
 : -22 | 7 | 6 | 4414 | 2.2 | 4 | 1
CN1CCN(c2ccc(C(=O)c3ccc(Br)cc3)cc2[N+](=O)[O-])CC1
 : -3 | -5 | 13 | 2239 | 0.4 | 11 | 3
COc1cc(C=NNC(=O)c2ccoc2C)cc(OC)c1OC
 : . | 6 | 4 | . | 2.3 | . | 8
Fc1ccccc1Nc1nc2ccccc2o1
 : -43 | . | . | 3482 | . | 20 | .
Cc1cccc(NC(=O)CN2CCN(C(=O)C3CCCO3)CC2)c1C (stereo unspecified)
 : -56 | 8 | 14 | 5828 | 0.8 | 8 | -2
C=CCN(CC=C)C(=O)C1CCN(Cc2ccc(OCc3ccccc3)cc2)CC1
 : -43 | 5 | 3 | 3938 | 1.4 | 9 | 4
CC1CCCN(C(=O)COC(=O)c2cccc(NS(=O)(=O)c3ccccc3)c2)C1 (stereo unspecified)
 : -23 | 1 | -1 | 5162 | 0.7 | 0 | -2
CCC(=O)Nc1cccc(-c2nc3ccc(C)cc3o2)c1
 : -50 | 12 | 4 | . | 0.5 | -3 | 5
Cc1ccc(C(=O)N/C(=C\c2ccco2)C(=O)NCCc2c[nH]c3ccccc23)cc1
 : -12 | 7 | -8 | 2531 | -0.4 | 11 | 8
COc1ccc(/C=N/Nc2nc(C)c([N+](=O)[O-])c(N(C)c3ccccc3)n2)cc1OC
 : 7 | . | . | 3321 | . | -2 | .
CC(CC(=O)Nc1cccc(Br)c1)=NNC(=O)c1ccc(O)cc1O
 : . | -3 | 4 | . | 6.4 | . | -2
O=C1/C(=C/c2ccccc2Cl)SC(=S)N1CCCC(=O)N(CCO)c1ccccc1
 : -10 | 9 | 5 | 5636 | 0.6 | -3 | 2
O=C(CSc1nc2ccccc2[nH]1)Nc1ccccc1F
 : -30 | -1 | 1 | 7182 | 2.7 | -3 | -9
Cc1ccc(OCCOCCn2cnc3ccccc3c2=O)cc1C
 : . | 14 | 8 | . | 1.0 | 10 | 5
COc1ccccc1NS(=O)(=O)c1cc(-c2cnc(C3CC3)o2)ccc1C
 : -19 | -1 | 6 | 6107 | 1.0 | 13 | 2
Cc1cc(C(=O)NC2CCCN(Cc3ccc(Cl)cc3)C2)n(C)n1 (stereo unspecified)
 : -19 | 8 | -3 | 4662 | 4.9 | 2 | 19
O=C(NCc1ccc(OC(F)(F)F)cc1)c1ccc2c(c1)S(=O)(=O)c1ccccc1C2=O
 : -10 | 21 | 7 | 4108 | 11 | 6 | 22
O=C(NC1CCN(Cc2ccccc2)CC1)c1cn(-c2ccccc2)nc1-c1cccnc1
 : -9 | 14 | 3 | 9849 | 1.8 | 1 | 1
O=C1CC(C(=O)N2CCc3ccccc32)CN1c1ccccc1 (stereo unspecified)
 : -15 | 3 | 3 | 3495 | 0.3 | -4 | 10
O=C(Nc1ccc(S(=O)(=O)N2CCCC2)cc1)c1ccc(Br)o1
 : -26 | 15 | -6 | 4408 | 2.3 | 0 | 3
OCC1(Cc2ccc(F)cc2)CCCN(CCCC(F)(F)F)C1 (stereo unspecified)
 : -7 | -2 | 1 | 3520 | -1.8 | 1 | 2
Cc1oc(-c2ccc(Cl)cc2)nc1CN1CCC(C(=O)NCC2CCCO2)CC1 (stereo unspecified)
 : -17 | 13 | 10 | 5213 | 0.3 | 6 | 2
O=C(Cc1n[nH]c(=O)c2ccccc12)NC(c1ccccc1)c1ccccc1
 : -4 | 4 | 4 | 4978 | 4.2 | 12 | 5
Cc1cc(C)c2oc(=O)cc(CN3CCOCC3)c2c1
 : -12 | 7 | 1 | 2526 | -4.5 | -2 | 0
CC(=O)c1ccc(S(=O)(=O)Nc2ccc(C(=O)N3CCC3)cc2)cc1
 : -15 | 9 | 6 | 4779 | 1.7 | . | 4
CN1C(=O)CCC(CCC(=O)O)(c2ccccc2O)C1=O (stereo unspecified)
 : . | 14 | 4 | 3578 | 6.4 | -7 | 11
Cc1cc(NC(=O)COc2ccc3ccccc3c2)no1
 : -32 | -12 | -1 | 3779 | -6.9 | -6 | 0

# Some of the entries above, set out differently:
SMILES: O=C(NC1CCN(Cc2ccccc2)CC1)c1cn(-c2ccccc2)nc1-c1cccnc1
  PrP UTR inh: -9	Mtb hypoxia rep: 14	Mtb hypoxia rep growth: 3	Bead autofluor: 9849	RN4220 kill: 1.8	BJeLR viability: 1	Sa ugtP lethal: 1

SMILES: O=C1CC(C(=O)N2CCc3ccccc32)CN1c1ccccc1 (stereo unspecified)
  PrP UTR inh: -15	Mtb hypoxia rep: 3	Mtb hypoxia rep growth: 3	Bead autofluor: 3495	RN4220 kill: 0.3	BJeLR viability: -4	Sa ugtP lethal: 10

SMILES: O=C(Nc1ccc(S(=O)(=O)N2CCCC2)cc1)c1ccc(Br)o1
  PrP UTR inh: -26	Mtb hypoxia rep: 15	Mtb hypoxia rep growth: -6	Bead autofluor: 4408	RN4220 kill: 2.3	BJeLR viability: 0	Sa ugtP lethal: 3

SMILES: OCC1(Cc2ccc(F)cc2)CCCN(CCCC(F)(F)F)C1 (stereo unspecified)
  PrP UTR inh: -7	Mtb hypoxia rep: -2	Mtb hypoxia rep growth: 1	Bead autofluor: 3520	RN4220 kill: -1.8	BJeLR viability: 1	Sa ugtP lethal: 2

# Reprinted at random: 3 records from the list.
# Values run as follows: PrP UTR inh | Mtb hypoxia rep | Mtb hypoxia rep growth | Bead autofluor | RN4220 kill | BJeLR viability | Sa ugtP lethal
CN1CCN(c2ccc(C(=O)c3ccc(Br)cc3)cc2[N+](=O)[O-])CC1
 : -3 | -5 | 13 | 2239 | 0.4 | 11 | 3
COc1ccc(/C=N/Nc2nc(C)c([N+](=O)[O-])c(N(C)c3ccccc3)n2)cc1OC
 : 7 | . | . | 3321 | . | -2 | .
CCC(=O)Nc1cccc(-c2nc3ccc(C)cc3o2)c1
 : -50 | 12 | 4 | . | 0.5 | -3 | 5

# Next part.
# Values run as follows: PrP UTR inh | Mtb hypoxia rep | Mtb hypoxia rep growth | Bead autofluor | RN4220 kill | BJeLR viability | Sa ugtP lethal
COc1cc2[nH]c3c(N4CCN(c5ccc(Cl)cc5)CC4)ncnc3c2cc1OC
 : -23 | -3 | 4 | 11344 | 6.6 | -6 | -5
COc1ccc(NC(=O)CS(=O)(=O)c2cccc(Cl)c2)cc1
 : -24 | -4 | -9 | 4549 | 0.4 | 4 | 9
O=C(NCc1ccccc1)c1cccc2c1C(=O)c1ccc(C=Cc3ccccc3)cc1S2(=O)=O
 : . | 10 | 7 | . | 6.6 | . | 5
CC(=O)Nc1ccc(C(C)=NNC(=O)c2ccc(-c3ccccc3)cc2)cc1
 : . | 8 | -2 | . | 8.1 | . | -1
O=C(Nc1scc(-c2ccccc2)c1C(=O)O)c1ccc(F)cc1
 : -71 | 4 | -9 | 3788 | 19 | -1 | -11
O=C(Cn1cc([N+](=O)[O-])cn1)NCc1ccccc1Cl
 : -29 | 8 | 2 | 5642 | 2.5 | -11 | 7
COC(=O)Cc1c(C)c2ccc(O)c(CN3CCCC(C)C3)c2oc1=O (stereo unspecified)
 : -23 | 3 | 2 | 2767 | -1.9 | -1 | -6
COC(=O)c1ccc(C)c(NC(=O)COC(=O)C2CC3CCCC(C2)C3=O)c1 (stereo unspecified)
 : -32 | 10 | 2 | 5256 | -1.6 | 1 | 12
Cc1csc(NC(=O)CSc2nc(C(C)C)nc3ccccc23)n1
 : -18 | 10 | 11 | 4029 | 5.0 | 6 | 12
Cc1cccc(C)c1NC(=O)COC(=O)c1nonc1N
 : -5 | 6 | 7 | 9517 | 1.5 | 7 | 1
Nc1ccccc1SCc1cn2ccccc2n1
 : -95 | 8 | 9 | 2048 | 3.1 | -5 | 5
COc1ccc2c(c1)c(C(=O)CN1CCC3(CC1)OCCO3)c(C)n2C
 : -15 | -3 | 0 | 3062 | 6.4 | -1 | 3
CCOCCCNCC(=O)Nc1ccc(OC(F)(F)F)cc1
 : -25 | . | . | 4965 | 1.0 | 4 | 10
CCOC(=O)c1cccc(NC(=O)N[C@@H](C)C(=O)OC)c1
 : 6 | -3 | -7 | 2460 | 24 | 1 | 20
N#C/C(=C(/O)c1ccc([N+](=O)[O-])o1)c1nc2ccccc2[nH]1
 : -11 | 8 | 10 | 4677 | 19 | -13 | 22
COc1cccc2cc(-c3nc(-c4cccs4)cs3)c(=O)oc12
 : -69 | 13 | 18 | 3637 | 4.1 | 2 | -10
COc1ccc(CNC(=O)c2c(N)n(CCCN3CCOCC3)c3nc4ccccc4nc23)cc1
 : -11 | 4 | 9 | 9579 | -3.1 | -5 | -9
O=C(COc1ccc2c(c1)CCC2)NCc1cccc(Cl)c1
 : -10 | 4 | 4 | 2512 | 3.4 | 6 | 11
CCCCn1c(N)c(N(CC(C)C)C(=O)c2cc(-c3ccc(F)cc3)nc3ccccc23)c(=O)[nH]c1=O
 : -7 | 8 | 5 | ? | 1.4 | 4 | -4
COC(=O)CCS(=O)(=O)c1cc(Cl)ccc1Cl
 : -41 | -2 | 5 | 8729 | 4.8 | -1 | -4
CCN(CC)CCc1c(C)[nH]c(C(=O)OCc2ccccc2)c1C
 : -12 | 13 | 9 | 6656 | 5.0 | -1 | 17
CCOc1ccc(C(=O)NCC(=O)OCC(=O)NC2CCCC2)cc1
 : -12 | -1 | 6 | 2766 | 0.3 | -1 | 1
Cc1ccc(NC(=O)CS(=O)CC(=O)N(CC(=O)NC2CCCC2)c2ccc3c(c2)OCCO3)cc1 (stereo unspecified)
 : -27 | 13 | 1 | 3431 | 3.5 | 6 | 9
Fc1cccc(NC(=S)NNc2ccccc2)c1
 : -12 | -3 | -2 | 3802 | -2.3 | -1 | 4
CC(=O)c1ccc(NC(=O)CN2CCC(NC(=O)C3CCCCC3)CC2)cc1
 : -25 | 2 | -8 | 3360 | 8.1 | -8 | 4
O=c1[nH]c2c(c(=O)n1Cc1ccccc1)CCC2
 : -5 | . | . | 4471 | 1.2 | 3 | 2
Cn1c(CCN2CCCCC2)nc2cc(NC(=O)C3CCCCC3)ccc21
 : -11 | 7 | 1 | 3883 | -1.0 | -15 | -1
CCOc1ccccc1NC(=O)NNS(=O)(=O)c1ccc([N+](=O)[O-])cc1
 : -16 | 6 | 2 | 5858 | 17 | 4 | 4
CCCc1nn(C)c2c(=O)[nH]c(-c3cc(S(=O)(=O)N(CCO)CCO)ccc3OCC)nc12
 : -12 | -3 | 4 | 4603 | 6.2 | 2 | 2
CN(C)c1ccc([N+](=O)[O-])cc1C(=O)NCC(c1ccco1)N(C)C (stereo unspecified)
 : -7 | 17 | 7 | 3978 | 4.0 | -16 | -8
S=C(Nc1ccc2c(c1)OCCO2)Nc1ccccc1Cl
 : -14 | 5 | 5 | 5424 | 5.0 | . | 6
CC(=O)OCC(=O)Nc1ccccc1OC(F)F
 : -18 | -5 | 6 | 4505 | 0.4 | -5 | -2
CC(NC(=O)Nc1cccnc1)(C(F)(F)F)C(F)(F)F
 : -3 | 1 | 4 | 8780 | 3.3 | -16 | -6
O=C(Nc1ccccc1)C1=C[C@H](c2coc3ccccc3c2=O)C[C@H](OCc2ccc(CO)cc2)O1
 : -16 | . | . | 4169 | . | -6 | .
COc1cc(OC)c(C(=O)OCC(=O)N2CC(=O)Nc3ccccc32)cc1OC
 : -18 | 0 | 9 | 3212 | -2.7 | 5 | 4
O=C(Nc1ccn(Cc2c(F)c(F)cc(F)c2F)n1)c1ccc(COc2cc(Cl)ccc2Cl)o1
 : -13 | 2 | 1 | 22103* | 0.7 | -3 | 0
COc1cccc(NP(=O)(Oc2ccc(Cl)cc2)Oc2ccc(Cl)cc2)c1
 : -44 | 9 | -3 | 2247 | -18 | -8 | -38
Cn1c(NC(=O)/C=C/c2c(F)cccc2Cl)cc(=O)n(C)c1=O
 : -9 | . | . | 3367 | . | -2 | .

# Source: PubChem
